CDC25B CDK2 inh: human CDC25B-CDK2/CyclinA binding inhibition; AID 1259370; actives 0.72% (n = 94,000); HTRF CDC25B-CDK2/CyclinA binding, anti-His/anti-Flag; active compounds read high; z-score (test concentration not listed); P30305+P24941;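 note: score is relative to mean and SD of negative controls; strong numbers were not always called active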
HIV TAR-Tat: HIV-1 TAR-Tat binding disruption | HIV-1 TAR RNA, Tat peptide displacement FRET; active compounds read high | z-score (concentration not given with the values) | actives 0.6% (n = 100,000);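 note: score is relative to mean and SD of negative controls; some compounds called inactive have numbers as strong as hits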
Active calls of the source: *.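 Rule for the calls: active = z-score from 3 up in half or more of its runs; inactive = the rest.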

Cn1c(=O)n(C)c2cc(N3CCOCC3)c(NC(=O)c3sc4ccccc4c3Cl)cc21 was read as CDC25B CDK2 inh -1.5 and HIV TAR-Tat 2.
For CCC(CO)Nc1nc2c([nH]1)c(=O)n(C)c(=O)n2C (stereo unspecified) the results were CDC25B CDK2 inh -1.1.
Cc1nnc(SCc2cccc(F)c2)c2cc3occc3n12 was read as HIV TAR-Tat -4.2.
Cc1ccccc1Nc1nc(NC2CCCCC2)nc2c1cnn2C was read as HIV TAR-Tat 1.3.
Screening CN(C)CCOC(=O)c1c[nH]c2ccccc12 returned CDC25B CDK2 inh 0.3 and HIV TAR-Tat 0.83.
Screening O=C1c2cccnc2C(=O)N1Cc1ccc(S(=O)(=O)N2CCCC2)s1 returned HIV TAR-Tat 0.15.
For CC1CCN(C(=O)C2CCC(CNc3c(N4CCC(C)CC4)c(=O)c3=O)CC2)CC1 (stereo unspecified) the results were CDC25B CDK2 inh 0.08.
For O=C(c1cc2nc(-c3ccc(Br)cc3)cc(C(F)(F)F)n2n1)N1CCCC1 the results were HIV TAR-Tat 2.2.
COc1ccc(C2=C(C)C(=NCc3ccc4c(c3)OCO4)NS2(=O)=O)cc1 was read as CDC25B CDK2 inh -0.82 and HIV TAR-Tat 0.28.
Screening CC1(C)Cc2nc3sc4c(NCCc5ccccc5)ncnc4c3cc2CO1 returned CDC25B CDK2 inh -1.5 and HIV TAR-Tat 0.39.

The final 5 compounds of the section above open the next one:
Screening O=C1c2cccnc2C(=O)N1Cc1ccc(S(=O)(=O)N2CCCC2)s1 returned HIV TAR-Tat 0.15.
For CC1CCN(C(=O)C2CCC(CNc3c(N4CCC(C)CC4)c(=O)c3=O)CC2)CC1 (stereo unspecified) the results were CDC25B CDK2 inh 0.08.
For O=C(c1cc2nc(-c3ccc(Br)cc3)cc(C(F)(F)F)n2n1)N1CCCC1 the results were HIV TAR-Tat 2.2.
COc1ccc(C2=C(C)C(=NCc3ccc4c(c3)OCO4)NS2(=O)=O)cc1 was read as CDC25B CDK2 inh -0.82 and HIV TAR-Tat 0.28.
Screening CC1(C)Cc2nc3sc4c(NCCc5ccccc5)ncnc4c3cc2CO1 returned CDC25B CDK2 inh -1.5 and HIV TAR-Tat 0.39.
Screening CC(=O)N1c2ccccc2CC1C(=O)NCC1CCCO1 (stereo unspecified) returned CDC25B CDK2 inh -1.6 and HIV TAR-Tat -1.6.
For Cc1csc2nc(COC(=O)c3ccc(C(C)(C)C)cc3)cc(=O)n12 the results were HIV TAR-Tat -0.02.
O=C(C1CCN(c2ccc(-c3cccs3)nn2)CC1)N1CCCC1 was read as HIV TAR-Tat -0.74.
`O=C(O)CCc1nnc2ccc(NCCCN3CCCC3=O)nn12` gave CDC25B CDK2 inh -0.81 and HIV TAR-Tat -0.49.
Cn1c(=O)n(CC(=O)O)c(=O)c2c1nc1n2CCCN1c1ccc(F)cc1 was read as CDC25B CDK2 inh -0.46 and HIV TAR-Tat 0.24.
CC(C)OC(=O)c1cccc(C(=O)OC(C)C)n1 was read as CDC25B CDK2 inh 0.11 and HIV TAR-Tat 1.8.
Cc1ccc(C(=O)NC(C)c2ccccc2)cc1NC(=O)C1=CSCCO1 (stereo unspecified) was read as HIV TAR-Tat 2.1.
`O=C(Nc1sc2c(c1C(=O)O)CCC2)c1cccnc1` gave CDC25B CDK2 inh -0.46 and HIV TAR-Tat 0.78.
N[C@@H](C(=O)O)[C@@H](O)[C@H](O)[C@H](O)CO was read as HIV TAR-Tat 0.99.
CCCc1nc2nc(C)c(NS(=O)(=O)c3ccc(OC)cc3)c(=O)n2[nH]1 was read as CDC25B CDK2 inh -1.4 and HIV TAR-Tat 1.6.
Screening Cn1c(=O)[nH]c2cc(-c3noc(-c4ccc(F)cc4)n3)ccc21 returned HIV TAR-Tat 0.96.
`O=C(O)CCCCN1C(=O)c2ccccc2C1=O` gave CDC25B CDK2 inh -2.
Cc1ccc(CCNC(=O)CN2C(=O)CC(C)(C)Sc3ccccc32)cc1 was read as CDC25B CDK2 inh -1.8.
Screening O=C(c1cnc2sccn2c1=O)N1CCN(c2ccccc2)CC1 returned CDC25B CDK2 inh -1.3.
Screening Cc1ccc2nc(Nc3ccc(N4CCOCC4)cc3)c3nnnn3c2c1 returned HIV TAR-Tat -0.87.
Screening Cn1cc(-c2cc3n(n2)CCC(=O)N3CC(=O)NCCC2=CCCCC2)c2ccccc21 returned HIV TAR-Tat -0.06.
For Cc1ccccc1OCCn1c(C2CCCO2)nc2ccccc21 (stereo unspecified) the results were CDC25B CDK2 inh -0.85 and HIV TAR-Tat 2.7.
O=c1c2cc3c(cc2nc(SCc2nc(-c4cccc(Cl)c4)no2)n1C1CC1)OCO3 was read as HIV TAR-Tat 2.5.
`Cc1nnc(SCC(=O)Nc2ncc3c(n2)CCCC3=O)s1` gave CDC25B CDK2 inh 0.19 and HIV TAR-Tat 0.49.
CN(C1CCCCC1)S(=O)(=O)N1CCCC(C(=O)N2CCc3ccccc32)C1 (stereo unspecified) was read as HIV TAR-Tat 4.

A run of entries from further up, as a working copy:
Screening Cn1cc(-c2cc3n(n2)CCC(=O)N3CC(=O)NCCC2=CCCCC2)c2ccccc21 returned HIV TAR-Tat -0.06.
For Cc1ccccc1OCCn1c(C2CCCO2)nc2ccccc21 (stereo unspecified) the results were CDC25B CDK2 inh -0.85 and HIV TAR-Tat 2.7.
O=c1c2cc3c(cc2nc(SCc2nc(-c4cccc(Cl)c4)no2)n1C1CC1)OCO3 was read as HIV TAR-Tat 2.5.

(listing goes on)
`COc1ccc(Cl)cc1S(=O)(=O)N1CCCC(C)C1` (stereo unspecified) gave CDC25B CDK2 inh -0.64 and HIV TAR-Tat 0.69.
COc1ccc2c(c1)c1c(n2C(C)=O)C(OC(C)=O)=NCC1 was read as CDC25B CDK2 inh -0.22.
Cc1ccc(C2=Nn3c(nnc3C3CCCCC3)SC2)cc1 was read as HIV TAR-Tat 0.92.
For CCc1ccc(OCCCSc2nc(-c3cccs3)nc3cc(=O)[nH]n23)cc1 the results were HIV TAR-Tat 1.9.
Screening Cc1ccc(C(=O)CC2(O)C(=O)N(Cc3ccc(Cl)cc3)c3ccccc32)cc1 (stereo unspecified) returned CDC25B CDK2 inh -1.1 and HIV TAR-Tat 1.2.
For O=C(CSc1ccc(-c2ccccn2)nn1)Nc1ccc(Cl)cc1 the results were HIV TAR-Tat 1.1.
`O=C(Cc1scnc1-c1cccs1)NCc1ccco1` gave CDC25B CDK2 inh -0.92 and HIV TAR-Tat -1.6.
O=C1C(C(=O)N2CCc3ccccc32)CCN1c1ccc(Cl)cc1 (stereo unspecified) was read as HIV TAR-Tat 0.53.
For O=C(c1ccc2c(c1)N(Cc1ccccc1)CCS2)N1CCOCC1 the results were CDC25B CDK2 inh -0.74 and HIV TAR-Tat 0.59.
`CCOC(=O)C(=CNc1ccc2n[nH]nc2c1)C(=O)OCC` gave CDC25B CDK2 inh 1.1.
For Cc1cc(NC(C)C)n2nc(-c3ccccc3)nc2n1 the results were CDC25B CDK2 inh -1.9 and HIV TAR-Tat -0.52.
`CSc1cccc(NC(=S)NNC(=O)Cc2c(C)cc(C)cc2C)c1` gave CDC25B CDK2 inh -0.07.
For Cc1cc(-c2nc(COc3ccc(Cl)cc3Cl)no2)no1 the results were CDC25B CDK2 inh -1.1.
Screening Cc1ccc(C)n1-c1cc(C(=O)O)cc(C(=O)O)c1 returned CDC25B CDK2 inh 0.35 and HIV TAR-Tat 17*.
Screening CC1CCc2c(sc(NC(=O)c3cc(-c4ccc(Br)cc4)on3)c2C(N)=O)C1 (stereo unspecified) returned CDC25B CDK2 inh -1.2.
Cc1nc(N2CCN(c3ccccc3)CC2)c2cc(C)sc2n1 was read as CDC25B CDK2 inh -2.1.
`Cc1ccc(C2C=C(c3ccccc3)Nc3nc(N4C(=O)C5CC=CCC5C4=O)nn32)cc1` (stereo unspecified) gave CDC25B CDK2 inh -1.4.
CC(C)C(NS(=O)(=O)c1ccc2c(c1)oc(=O)n2C)C(=O)N1CCCCC1 (stereo unspecified) was read as CDC25B CDK2 inh 1.2.
Screening CCOP(=O)(O)COc1ccc([N+](=O)[O-])cc1 returned CDC25B CDK2 inh 0.19.
CC(=O)Nc1ccc2c(c1)COCO2 was read as CDC25B CDK2 inh -1.7.
`COc1cccc(C2C(C(=O)OC(C)C)=C(C)NC3=C2C(=O)CC(c2cccs2)C3)c1OC` (stereo unspecified) gave CDC25B CDK2 inh -0.51 and HIV TAR-Tat 0.51.
`CCc1nnc(NC(=O)c2nn(-c3ccc(Cl)cc3)ccc2=O)s1` gave CDC25B CDK2 inh -1.1 and HIV TAR-Tat 1.9.
CC(C)CC1Nc2ccc(C(=O)NC3CCCC3)cc2NC1=O (stereo unspecified) was read as CDC25B CDK2 inh -0.68 and HIV TAR-Tat -0.11.
`O=S(=O)(Nc1cc(-c2c(O)ccc3ccccc23)c(O)c2ccccc12)c1ccc(F)cc1` gave CDC25B CDK2 inh -0.4.
`Cn1c(=O)n(C)c2cc(C(O)COc3ccc(CNC(C)(C)CO)cc3)ccc21` (stereo unspecified) gave CDC25B CDK2 inh -0.03 and HIV TAR-Tat 1.3.
COC(=O)c1cnn2c(C(F)(F)F)cc(-c3cccc(OC)c3)nc12 was read as CDC25B CDK2 inh -1.5 and HIV TAR-Tat 0.4.
For COc1ccc(Nc2n[nH]c(C)c2[N+](=O)[O-])cc1 the results were CDC25B CDK2 inh -1.4 and HIV TAR-Tat 0.83.
`COc1ccc(-c2noc(-c3nnn(-c4ccc(C(C)C)cc4)c3N)n2)cc1` gave HIV TAR-Tat 1.1.
Screening Cc1cccn2cc(CNC(=O)c3cccs3)nc12 returned CDC25B CDK2 inh -1.6.
For O=C1CCc2cc(S(=O)(=O)NC(Cc3ccccc3)C(=O)NCCC3=CCCCC3)ccc2N1 (stereo unspecified) the results were CDC25B CDK2 inh -0.33.
For CN(C1CCCCC1)S(=O)(=O)c1ccc2c(c1)N(CC(=O)NCC1CCCO1)C(=O)CS2 (stereo unspecified) the results were HIV TAR-Tat 0.54.
Screening Cc1ccc(S(=O)(=O)On2nnc3ccccc32)cc1 returned CDC25B CDK2 inh -1.8.
For Cc1cccn2c(=O)c3cc(C#N)c(=O)n(-c4nnc(SCc5ccc(F)cc5)s4)c3nc12 the results were CDC25B CDK2 inh -21 and HIV TAR-Tat -0.24.
CC[C@H](C)NC(=O)CCc1nc2sc3c(c2c(=O)[nH]1)CCCCC3 was read as HIV TAR-Tat 1.1.
For Nc1ccc(-c2nc3cc(N)c(Cl)cc3[nH]2)cc1 the results were CDC25B CDK2 inh -6.2 and HIV TAR-Tat 5.5*.
`Cc1ccc(-c2cnc(C3CC3)o2)cc1S(=O)(=O)Nc1ccc(F)cc1Cl` gave HIV TAR-Tat 1.1.
Clc1cccc(N2CCN(c3cnnc4c(Cl)cccc34)CC2)c1 was read as HIV TAR-Tat 7.
`Cc1ccc(-c2onc(C)c2C)cc1S(=O)(=O)Nc1cccc(-c2ccno2)c1` gave HIV TAR-Tat 2.4.
`CCCOC(=O)c1c(-c2ccccc2)nc(CC)c(C(=O)SCC)c1CCC` gave CDC25B CDK2 inh -1.3.
Cc1sc2ncnc(SCC(=O)Nc3c(C)n(C)n(-c4ccccc4)c3=O)c2c1C was read as CDC25B CDK2 inh -2.
`O=C(NCC1CCCO1)c1c(-c2ccccc2)c(-c2ccccc2)n[nH]c1=O` (stereo unspecified) gave CDC25B CDK2 inh -1.4 and HIV TAR-Tat 1.1.
Screening COc1ccc(CC(=O)N2N=C(c3ccc(F)cc3)CC2(O)C(F)(F)F)cc1OC (stereo unspecified) returned CDC25B CDK2 inh -2.9.
For COC(=O)c1cc(C)nc2c1c(=O)nc(SCc1cccc(C)c1)n2C1CC1 the results were HIV TAR-Tat 1.5.
Cc1cc(-c2ccc(C)c(S(=O)(=O)NCc3ccc(Br)cc3)c2)on1 was read as HIV TAR-Tat 1.7.
Screening CC1CCN(C(=O)c2cc(S(=O)(=O)N3CCCC3)cn2C)CC1 returned HIV TAR-Tat -0.5.
Screening CC(=O)O[C@H]1C[C@@H](O)C(C)(C)C2C[C@@H](OC(C)=O)[C@]3(C)C(CC[C@@]4(C)[C@H](c5ccoc5)OC(=O)C5OC543)[C@]21C (stereo partly specified) returned HIV TAR-Tat 1.6.
Screening CCOC(=O)c1ccc(N2CC3CCCCN3C2c2cccc(OC)c2O)cc1 (stereo unspecified) returned CDC25B CDK2 inh -2.
`Cc1c2cnn(-c3ccccc3)c(=O)c2c(C)n1C(C)C(=O)Nc1nccs1` (stereo unspecified) gave CDC25B CDK2 inh -0.2 and HIV TAR-Tat 0.36.
Screening Cc1ccc2c(c1)sc1ncc(NC(=O)c3ccccc3C)c(=O)n12 returned CDC25B CDK2 inh -0.19 and HIV TAR-Tat -0.01.
For CCOC(=O)C1CCN(C(=O)c2cc3ccc4cccnc4c3[nH]2)CC1 the results were HIV TAR-Tat 1.8.
Screening Cn1nc(C(=O)NCCCN(Cc2ccco2)C2CCCC2)c2c1-c1ccccc1SC2 returned CDC25B CDK2 inh 0.09 and HIV TAR-Tat 0.11.
O=C(Nc1c(C(=O)N(Cc2ccc(F)cc2)Cc2cccnc2)oc2ccccc12)C1CCCC1 was read as HIV TAR-Tat 0.4.
Screening CC(=O)Oc1cc(-c2coc3cc(OC(C)=O)c(OC(C)=O)c(OC(C)=O)c3c2=O)cc(OC(C)=O)c1OC(C)=O returned HIV TAR-Tat 25*.
`O=C(Cn1c(=O)sc2ccccc21)Nc1nnc(SCC(=O)N2CCOCC2)s1` gave CDC25B CDK2 inh -1.1 and HIV TAR-Tat 0.1.
`O=C(c1noc2c1CCCC2)N1CCC(c2c[nH]c3ccccc23)(c2c[nH]c3ccccc23)CC1` gave CDC25B CDK2 inh -0.16.
`O=[N+]([O-])c1cccnc1SCc1csc2ccc(Cl)cc12` gave CDC25B CDK2 inh 0.01.
Screening COC(=O)c1ccc2[nH]c(C)c(CN(C)C)c(=O)c2c1 returned CDC25B CDK2 inh -0.11 and HIV TAR-Tat 0.23.
